# Screening data (PubChem BioAssay)
# KCNQ2 enhance: KCNQ2 (rat) channel potentiation | CHO-K1 KCNQ2, FluxOR thallium flux fluorescence; hits give high values | B-score at 10 µM | 310,000 compounds, 0.54% hits | AID 2239;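 active = fluorescence ratio B-score at least 3 SD of library B-scores, with initial fluorescence B-score within 3 SD, cut at about 5.3 in these data; same plate scores as AID 2156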;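 also: B-score of peak minus minimum over baseline fluorescence ratio after K+ and Tl+ stimulus; positive B-score means potentiation of KCNQ2 with more thallium influx and brighter signal; only the inactives scoring about 0 or higher are listed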
# Target sequence (O88943 whole entry, looked up): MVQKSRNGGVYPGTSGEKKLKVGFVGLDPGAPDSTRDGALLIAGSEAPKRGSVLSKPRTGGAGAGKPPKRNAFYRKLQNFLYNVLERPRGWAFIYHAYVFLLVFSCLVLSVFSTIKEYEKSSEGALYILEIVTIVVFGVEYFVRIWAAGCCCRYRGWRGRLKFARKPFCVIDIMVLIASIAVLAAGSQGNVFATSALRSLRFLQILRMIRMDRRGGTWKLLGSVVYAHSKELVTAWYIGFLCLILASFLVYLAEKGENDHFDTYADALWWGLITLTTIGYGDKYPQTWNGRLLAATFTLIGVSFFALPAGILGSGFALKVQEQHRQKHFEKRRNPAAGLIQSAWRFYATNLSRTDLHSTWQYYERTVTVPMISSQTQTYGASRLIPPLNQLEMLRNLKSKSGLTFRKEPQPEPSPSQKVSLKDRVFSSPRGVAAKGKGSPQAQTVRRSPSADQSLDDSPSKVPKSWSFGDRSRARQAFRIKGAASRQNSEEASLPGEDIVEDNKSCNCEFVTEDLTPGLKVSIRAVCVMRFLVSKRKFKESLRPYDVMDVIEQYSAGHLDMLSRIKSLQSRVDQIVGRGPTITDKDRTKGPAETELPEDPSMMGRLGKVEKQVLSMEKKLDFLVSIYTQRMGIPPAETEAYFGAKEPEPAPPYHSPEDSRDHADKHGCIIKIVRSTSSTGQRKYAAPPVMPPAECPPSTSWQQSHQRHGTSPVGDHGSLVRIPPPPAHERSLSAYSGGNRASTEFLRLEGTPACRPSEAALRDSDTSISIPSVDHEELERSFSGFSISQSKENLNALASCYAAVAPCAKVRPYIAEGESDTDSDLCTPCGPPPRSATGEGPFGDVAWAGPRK
# KCNQ2 enhance baseline: second read-out of KCNQ2 enhance, no call of its own (marks repeat the call); B-score; compound at 10 µM; measured here: initial fluorescence intensity artifact check;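 brightness before thallium and not channel activity; 0 = typical well and far values either way flag optical interference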
# * = called active by the depositor. Only part of the results is shown, so the mix of outcomes need not match the whole.
# The line under a structure holds: KCNQ2 enhance	KCNQ2 enhance baseline
1	COc1ccccc1C(=O)NCCNC(=O)c1ccco1
  0.61	0.02
2	CC1CCCCC1NC(=O)c1cccc(S(=O)(=O)N2CCN(C)CC2)c1 (configuration not stated)
  1.2	0.51
3	CCOC(=O)CN1C(=O)c2ccccc2Sc2ncccc21
  0.31	0.2
4	O=C1NC[C@H](Cc2ccc(O)cc2)N(CC2CCCCC2)C1=O
  0.82	1.2
5	CC(=O)n1cc(/C=N/NC(N)=S)c2ccccc21
  1.3	-2.2
6	COc1ccccc1NC(=O)c1cnc(SC)nc1
  1.1	0.79
7	Cc1[nH]nc2c1C(c1ccc(-c3ccc(Cl)cc3)o1)C(C#N)=C(N)O2 (configuration not stated)
  1.4	-1.8
8	CC(C)C(=O)N1CCC2(CC1)Oc1ccc(F)cc1C(=O)C21CC(c2ccccc2)=NO1 (configuration not stated)
  0.02	-0.9
9	Cc1cc(-c2csc3nc[nH]c(=S)c23)cc(C)c1C
  15*	-0.22*
10	Cc1ccc(O)c(/C=N/NC(=O)Cc2ccc(Cl)cc2)c1
  5.3*	2.4*
11	CC(C)c1ccc(NC(=O)N2CCCC2C(=O)Nc2ccc(-n3cnnn3)cc2)cc1 (configuration not stated)
  2.8	0.33
12	CCN1CCN(c2nc(N(C)c3ccccc3)nc(N)c2[N+](=O)[O-])CC1
  0.07	0.05
13	COc1ccccc1N1CCN(C(=O)C2CC2)CC1
  0.4	0.76
14	Cc1cc(C)c2ccc(/C=N/O)nc2c1O
  12*	-0.17*
15	CCCn1nnnc1NC(=O)CSc1ccc(Cl)cc1
  2	0.96
16	CCOc1ccc(N2CC(O)=C(c3nc4ccccc4c(=O)[nH]3)C2=N)cc1
  0.45	0.19
17	Cc1ccc(NC(=O)/C=C/c2cccs2)c([N+](=O)[O-])c1
  0.04	-0.19
18	COc1ccc(CC(=O)NNC(=O)[C@@H]2CCCC[C@@H]2C(=O)O)cc1
  0.76	-0.91
19	CCCc1c(C(=O)OCC)sc(N)c1C#N
  0.1	0.62
20	COc1ccc(C(=O)NC(=S)NCc2cccnc2)cc1[N+](=O)[O-]
  0.64	-0.07
21	COc1ccc2[nH]c(=O)c(CNc3ccc(C)cc3C)cc2c1
  0.12	0.69
22	C/C(CC(=O)Nc1ccc(C)c(Cl)c1)=N\NC(=O)c1ccccn1
  0.05	-0.92
23	CCOC(=O)c1c(NC(C)=O)sc2c(O)c(CN3CCN(CC)CC3)ccc12
  0.34	-0.74
24	COC(=O)c1ccc(N2CCN(C)CC2)c(NC(=O)c2ccc(Br)o2)c1
  2.6	-0.79
25	Cc1ccn2c(=O)c(NC(=O)c3cccc4ccccc34)c(C)nc2c1
  0.47	-0.95
26	COc1ccc(NS(=O)(=O)c2cccc(C(=O)N/N=C/c3cccs3)c2)cc1
  5.2	0.09
27	O=C(Nc1cccc(S(=O)(=O)N2CCOCC2)c1)c1c2c(nc3ccccc13)CCC2
  1.2	-1.4
28	CCN1CC(CN(C)Cc2nc(-c3ccc(C(F)(F)F)cc3)no2)CC1=O (configuration not stated)
  0.3	0.06
29	CCN(CC)CCCNC(=O)CNC(=S)N(CCCN1CCOCC1)Cc1cccs1
  1.3	3.2
30	CC(=O)N(C1CC(C)C(C#N)(C#N)C1(C#N)C#N)N(C)C (configuration not stated)
  24*	0.04*
31	Cc1cccc(NC(=O)C2CC(=O)OC23CCCC3)c1 (configuration not stated)
  0.03	-0.12
32	CNCC(O)Cn1c(C(F)(F)F)nc2ccccc21 (configuration not stated)
  0.05	-0.03
33	CN(Cc1ccccc1)Cc1nc2c([nH]1)c(=O)[nH]c(=O)n2C
  0.6	0.47
34	CCOC(CNC(=O)c1cccn2c(=O)c3cc(Cl)ccc3nc12)OCC
  0.69	0.5
35	Cc1c(F)cccc1NS(=O)(=O)c1ccc2c(c1)n(C)c(=O)c(=O)n2C
  0.44	1.1
36	CC(C)N(C(=O)Cn1c(SCC(=O)N2CCN(c3ccccc3)CC2)nc2ccccc21)C(C)C
  0.92	-0.67
37	CC(OC(=O)CN1C(=O)NC2(CCCC2)C1=O)C(=O)Nc1cccc(Cl)c1 (configuration not stated)
  0.61	0.19
38	O=C(Nc1ccc(Br)cc1C(=O)O)c1ccc2c(c1)C(=O)N(Cc1ccccc1)C2=O
  2.5	-0.53
39	CC(=O)NC1C(Oc2cccc(C)c2)OC2COC(c3ccco3)OC2C1O (configuration not stated)
  0.26	0.94
40	CCc1cccc(C)c1NC(=O)C(c1ccc(O)cc1)N1CCC1=O (configuration not stated)
  0.67	0
41	CC1OC(OCC2OC(Oc3c(-c4ccc(O)cc4)oc4cc(O)cc(O)c4c3=O)C(O)C(O)C2O)C(O)C(O)C1O (configuration not stated)
  1.4	0.2
42	COc1ccc2nc(SCC(=O)Nc3nccs3)[nH]c2c1
  0.06	0.97
43	CCOC(=O)c1c[nH]n(-c2ccc(C)cc2)c1=O
  0.2	0.6
44	O=C(O)c1cccc(S(=O)(=O)Nc2ccc([N+](=O)[O-])cc2O)c1
  0.73	0.03
45	CCOc1ccc(CCN2C(=O)CCC2(C)C(=O)NC(C)CC)cc1OCC (configuration not stated)
  2.6	-1.6
46	COc1ccccc1CNC(=O)COC(=O)c1nc(Cl)ccc1Cl
  1.1	-1.7
47	O=C(CSc1ncn(-c2ccccc2)n1)Nc1ccc(Br)cn1
  0.02	-1.1
48	Cn1c(SCC(=O)n2c3c(c4ccccc42)CCCC3)nnc1-c1ccccc1
  1.2	-1.6
49	COc1ccc2[nH]c(C(=O)O)c(CCN3C(=O)c4cccc([N+](=O)[O-])c4C3=O)c2c1
  1.6	-0.12
50	COc1ccc(C)c(S(=O)(=O)Nc2ccc(OCC(=O)O)cc2)c1
  2.2	-0.07
51	Cc1cccn2cc(-c3ccc(F)cc3)nc12
  1.9	-1.2
52	CCN(CC)CCCN=Cc1c(O)n(-c2ccccc2C)c(=O)c2ccccc12
  1.2	0.35
53	CCOCCCNC(=O)CCSc1ccc(C)cc1
  0.18	0.03
54	O=C(O)Cc1ccc(NC(=O)c2cccs2)cc1
  0.53	1.1
55	CCOCCOC(=O)c1ccc(-n2cnc(C)n2)nc1
  1	-0.06
56	CCN(CC)Cc1c(O)ccc2c(=O)c(-c3ccccc3Cl)coc12
  0.34	-0.19
57	CCOC(=O)Cc1csc(NC(=O)c2cccc(N3C(=O)CCC3=O)c2)n1
  0.83	0.78
58	O=C(/C=C/c1cccs1)c1cc(Cl)ccc1O
  1.1	0.24
59	COc1ccc(NC(=O)C(NC(=O)c2ccccc2)C(C)C)cc1 (configuration not stated)
  1.2	0.02
60	OCCCn1c(C2CCCN2c2nc(-c3ccc(Cl)cc3)cs2)nc2cc(C(F)(F)F)ccc21 (configuration not stated)
  0.18	0.65

# (list continues)
# The line under a structure holds: KCNQ2 enhance	KCNQ2 enhance baseline
61	COc1cccc(-c2c(C(=O)N/N=C/c3ccoc3)nnn2-c2nonc2N)c1
  1.2	0.24
62	CCOC(=O)N1CCN(C(=O)CN(c2cccc(C)c2)S(=O)(=O)c2ccc(C)cc2)CC1
  1.1	0.26
63	CCOC(=O)c1ccc(N/C=C/C(=O)c2ccc(OC)c(OC)c2)cc1
  1.4	0.16
64	O=c1cc(-c2ccco2)oc2c1ccc1ccccc12
  0.89	0.22
65	COc1ccccc1NC(=O)c1c(NC(=O)CCC(=O)O)sc2c1CCCCC2
  0.13	-0.24
66	Cc1cc(CN2CCCC(C(=O)Nc3ccc(-c4nc5ccccc5[nH]4)cc3)C2)n[nH]1 (configuration not stated)
  1.7	-0.64
67	CCCC(=Nc1ccc(N)cc1)C1=C(O)C(C(=O)OC)C(C)(C)CC1=O (configuration not stated)
  0.3	-0.23
68	CC1(C)Cc2c(ccc3ccccc23)C(NNC(=O)c2cccnc2)=N1
  0.76	-0.1
69	CSc1cccc(NC(=S)N(CCN(C)C)C(C)c2ccncc2)c1 (configuration not stated)
  1.7	0.27
70	COc1ccc(-c2c(C(C)=O)c(C)nc3sc4c(=N)n(N)cnc4c23)cc1
  1.2	0.83
71	CCCCNC(=O)C(=O)N/N=C/c1ccc(C(=O)OC)cc1
  0.96	-0.12
72	COc1ccc(NC(=O)C(OC)c2ccccc2)cc1Cl (configuration not stated)
  2.5	0.49
73	COc1ccc(NC(=O)C2CCCN(S(=O)(=O)c3c(C)n[nH]c3C)C2)cc1OC (configuration not stated)
  0.21	3.6
74	Cc1cccc(C(=O)N[C@H](C(=O)Nc2nc3ccc(S(C)(=O)=O)cc3s2)C(C)C)c1
  1.9	-1.2
75	O=C(NNC(=O)C1C2C=CC(C2)C1C(=O)O)c1ccccc1O (configuration not stated)
  0.98	-0.74
76	CC(C)n1c(SCC(=O)Nc2nncs2)nnc1-c1ccco1
  1.7	-1.2
77	CC(=O)N(CN1C(=O)CCC1=O)c1ccc(Cl)c(Cl)c1
  0.31	0.56
78	COc1cc(C(=O)OCCCOC(=O)c2cc(OC)c(OC)c(OC)c2)cc(OC)c1OC
  1.8	-0.41
79	CC(=O)N/N=C(\C)c1cccc(NC(=O)c2cccs2)c1
  0.05	0.12
80	O=C(Cn1ccc([N+](=O)[O-])n1)N1CCCCCC1
  0.68	-0.01
81	CCOC(=O)C1(C(F)(F)F)N=C(C(F)(F)F)Nc2ccc(F)cc21 (configuration not stated)
  0.88	-0.84
82	COc1cc2c3c(c1OC)C1(C=CC(=O)C=C1)CC3N(C(C)=O)CC2 (configuration not stated)
  0.28	0.06
83	CCS(=O)(=O)N1CCN(c2cc3c(cc2[N+](=O)[O-])n(C)c(=O)n3C)CC1
  2.6	-0.92
84	O=C(O)/C=C/c1cn(Cc2ccccc2)nc1-c1cccs1
  0.1	-0.04
85	CCN(CC)S(=O)(=O)c1ccc(C(=O)NCCCn2ccnc2)cc1
  0.49	-0.58
86	O=[N+]([O-])c1ccc(-c2cnc(SCc3ccccc3Cl)[nH]2)cc1
  1	-0.08
87	COC(=O)c1sc(N)nc1C(C)(C)C
  2.4	-0.42
88	CCCCn1c(O)c(N=NC(=O)Cn2c(C(F)(F)F)nc3ccccc32)c2ccccc21
  1.5	-0.01
89	CCOC(=O)c1nnn(-c2nonc2N)c1CN(CC)CC
  0.84	0.31
90	CC1=CN2C(=NC(=O)CC2(C)C(=O)N(CC(=O)NC2CCCC2)Cc2ccc(Cl)cc2)C=C1 (configuration not stated)
  0.04	-0.8

# Some of these compounds in order of length of the SMILES, low to high.
# The line under a structure holds: KCNQ2 enhance	KCNQ2 enhance baseline
46	COc1ccccc1CNC(=O)COC(=O)c1nc(Cl)ccc1Cl
  1.1	-1.7
21	COc1ccc2[nH]c(=O)c(CNc3ccc(C)cc3C)cc2c1
  0.12	0.69
40	CCc1cccc(C)c1NC(=O)C(c1ccc(O)cc1)N1CCC1=O (configuration not stated)
  0.67	0
33	CN(Cc1ccccc1)Cc1nc2c([nH]1)c(=O)[nH]c(=O)n2C
  0.6	0.47
39	CC(=O)NC1C(Oc2cccc(C)c2)OC2COC(c3ccco3)OC2C1O (configuration not stated)
  0.26	0.94
48	Cn1c(SCC(=O)n2c3c(c4ccccc42)CCCC3)nnc1-c1ccccc1
  1.2	-1.6

# Entries by screen from above:
# KCNQ2 enhance, entries 32–43, in order: 0.05, 0.6, 0.69, 0.44, 0.92, 0.61, 2.5, 0.26, 0.67, 1.4, 0.06, 0.2
# KCNQ2 enhance baseline, entries 32–43, in order: -0.03, 0.47, 0.5, 1.1, -0.67, 0.19, -0.53, 0.94, 0, 0.2, 0.97, 0.6

# Further entries
# The line under a structure holds: KCNQ2 enhance	KCNQ2 enhance baseline
91	CC(C)C(=O)NNc1ccc(C(F)(F)F)cn1
  0.18	0.23
92	Cc1ccccc1-c1nc(CN2CCCC(C(=O)NCCCN3CCOCC3)C2)c(C)o1 (configuration not stated)
  0.91	0.32
93	NC(=O)CCC(NS(=O)(=O)c1ccc(Cl)cc1)C(=O)NCc1ccccc1 (configuration not stated)
  1.4	-0.68
94	O=C(CNc1cccc([N+](=O)[O-])c1)N/N=C/c1ccc([N+](=O)[O-])o1
  0.61	0.15
95	CC1CN(C(=O)CSc2nnc(CNC(=O)c3ccc(S(=O)(=O)N(C)C)cc3)o2)CC(C)O1 (configuration not stated)
  0.07	0.22
96	O=C(Nc1cccnc1)c1cnn2c(C(F)F)cc(C3CC3)nc12
  2.8	-0.63
97	COc1ccc(CC(=O)n2nc(-c3cccnc3)nc2N)cc1
  0.07	2
98	Cc1ccsc1/C=N/Nc1cccc(C(=O)O)c1
  1.9	-2.6
99	CCOc1ccccc1CNCCNC(=O)c1nonc1N
  0.23	-0.66
100	COCCn1c(=O)c2cc3c(=O)n(CCOC)c(=O)c3cc2c1=O
  1.1	0.54
101	Cc1ccccc1NC(=O)c1cc(=O)c2ccccc2o1
  0.54	1.5
102	O=C(O)Cc1c[nH]c2ccccc12
  0.41	-2
103	O=C(NCCn1cc(SCc2ccccc2)c2ccccc21)c1c(F)cccc1F
  0.04	1.2
104	Cc1onc(-c2ccccc2Cl)c1C(=O)N1CCN(Cc2ccc3c(c2)OCO3)CC1
  0.83	-0.88
105	Cc1ccc(CNC(=O)C2CCCN(S(=O)(=O)c3c(C)noc3/C=C/N(C)C)C2)cc1 (configuration not stated)
  0.42	2.1
106	COCCSc1ccccc1C(=O)Nc1ccc(Cl)cc1
  1.1	-0.95
107	C[C@H](NC(=O)OCc1ccccc1)C(=O)NNC(=O)[C@H](Cc1ccccc1)NC(=O)OC(C)(C)C
  1.3	0.87
108	CCOC(=O)N1CCN(Cc2nc3cc(NC(=O)CC(C)C)ccc3n2C)CC1
  1.3	-0.47
109	Cc1[nH]nc(SCC(=O)NCc2ccccc2)c1[N+](=O)[O-]
  0.82	-0.9
110	CCOc1cc(C)nc(NCCc2ccc(OC)c(OC)c2)n1
  2.6	0.09

# Given with the structure last: entries from further up.
nr	KCNQ2 enhance	KCNQ2 enhance baseline	SMILES
90	0.04	-0.8	CC1=CN2C(=NC(=O)CC2(C)C(=O)N(CC(=O)NC2CCCC2)Cc2ccc(Cl)cc2)C=C1 (configuration not stated)
61	1.2	0.24	COc1cccc(-c2c(C(=O)N/N=C/c3ccoc3)nnn2-c2nonc2N)c1
45	2.6	-1.6	CCOc1ccc(CCN2C(=O)CCC2(C)C(=O)NC(C)CC)cc1OCC (configuration not stated)
